Screening results as filed in PubChem BioAssay.
PV pol inh: inhibitors of poliovirus RNA polymerase binding and polymerization; % elongation, % (compound at 16.7 µg/mL); 150,000 compounds, 0.66% hits; poliovirus polymerase elongation, fluorescence polarization; stronger effect = lower value; in the data active = % elongation below about 90%; also: some results filed as inactive read as strong as hits
Mtb MbtI inh: inhibitors of Mycobacterium tuberculosis siderophore enzyme MbtI; purified MbtI enzyme, fluorescence intensity read-out; 100,000 compounds, 0.89% hits; inhibition, %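 (about 17 µg/mL by stock and volumes)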; P9WFX0;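 active = above 50% in both replicates, above 80% if mildly self-fluorescent; inactive = the rest, strongly fluorescent compounds included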;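 also: 0% = mean of negative and 100% = mean of positive controls; one replicate is shown; some compounds called inactive have numbers as strong as hits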
Target sequence (P9WFX0 whole entry, looked up): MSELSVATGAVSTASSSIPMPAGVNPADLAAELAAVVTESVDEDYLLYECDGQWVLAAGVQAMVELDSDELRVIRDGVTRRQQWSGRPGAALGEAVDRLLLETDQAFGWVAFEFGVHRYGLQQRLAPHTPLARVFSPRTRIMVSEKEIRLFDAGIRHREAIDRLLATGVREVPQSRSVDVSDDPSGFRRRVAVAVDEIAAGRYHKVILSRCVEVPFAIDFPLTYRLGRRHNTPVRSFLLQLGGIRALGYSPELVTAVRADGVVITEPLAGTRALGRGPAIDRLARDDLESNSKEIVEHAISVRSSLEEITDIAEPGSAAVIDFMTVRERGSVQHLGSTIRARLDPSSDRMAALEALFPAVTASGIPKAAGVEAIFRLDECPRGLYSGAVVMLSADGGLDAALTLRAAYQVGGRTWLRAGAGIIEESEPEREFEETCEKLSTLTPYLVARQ
Mtb MenB inh: blocks the Mycobacterium tuberculosis MenB enzyme | P9WNP5 | MenB enzyme assay, absorbance read-out; some hits fall short of the stated cut | inhibition, %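 (about 12 µg/mL by stock and volumes)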 | 100,000 compounds, 0.43% hits | AID 540299;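 active = mean of two replicates above 30%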;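 also: 0% = no compound and 100% = wells with inactive enzyme; the first replicate is given; strong numbers were not always called active; inactives centre near -10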
Target sequence (P9WNP5 whole entry, looked up): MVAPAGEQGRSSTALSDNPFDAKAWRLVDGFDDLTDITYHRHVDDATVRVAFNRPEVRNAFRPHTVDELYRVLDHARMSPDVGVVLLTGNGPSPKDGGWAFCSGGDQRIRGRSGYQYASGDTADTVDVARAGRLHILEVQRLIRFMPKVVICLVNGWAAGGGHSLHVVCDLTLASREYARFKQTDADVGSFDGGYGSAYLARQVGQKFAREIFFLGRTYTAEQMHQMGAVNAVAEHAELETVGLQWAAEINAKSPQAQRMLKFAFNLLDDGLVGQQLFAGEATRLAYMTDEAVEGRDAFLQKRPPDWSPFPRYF
PV pol inh intensity: further read-out of PV pol inh, marked with its call; % elongation; measured here: total intensity read-out; formula for this scale not given here;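 total fluorescence in place of polarization; lower means less elongation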
* marks the source's active call; other numbers are inactive results; . = no result given; & = joins results of further samples.

SMILES	PV pol inh	PV pol inh intensity	Mtb MbtI inh	Mtb MenB inh
COc1ccc(NCc2cc3ccccc3[nH]c2=O)cc1	110	108	.	-9
CN(CC(O)COc1ccc(S(=O)(=O)N2CCOCC2)cc1)C1CCCCC1 (stereo not given)	108	116	8	-13
CC(=O)NCCC(=O)N1CCc2ccccc21	104	105	-13	-11
O=C(Cn1ccsc1=NC(=O)c1ccco1)c1ccccc1	108	105	.	-17
O=C(O)c1ccc(CSc2nc(-c3ccccc3)cc(C(F)(F)F)n2)o1	101	100	11	-3
C=CCn1c(Sc2c3c(nc4ncnn24)CCC3)nnc1-c1ccccc1	100	97	1	-15
O=c1[nH]c(CSc2ccccn2)nc2c1oc1ccccc12	103	106	0	10
Cn1ccnc1C(O)c1ccc2c(c1)OCO2 (stereo not given)	103	103	-4	-12
O=C(Oc1ccc2sc(=O)oc2c1)c1cccs1	98	105	-5	-6
CCOc1ccccc1CNC(=O)C(C)n1ncn2cccc2c1=O (stereo not given)	103	103	-9	13
O=C(NCC1CCC(C(=O)Nc2ccc3c(c2)OCO3)CC1)c1ccc(=O)[nH]c1 (stereo not given)	101	102	-8	12
O=C(c1cccnc1)N1CCC2(CC1)OCCO2	99	102	-9	-16
Cc1ccc2[nH]c3nc(=S)[nH]nc3c2c1	102	102	22	-21
Cc1ccc(N2CCN(/N=C\C=C\c3ccccc3)CC2)cc1	100	96	2	-21
O=C1CCCC2=C1C(c1ccccc1)CC(=O)N2c1ccc(F)cc1 (stereo not given)	102	102	.	-18
CCc1noc(C)c1C(=O)N1CCc2ccccc21	103	108	-11	-32
O=C(COc1ccccc1)N1CCN(c2ncccn2)CC1	104	106	18	-2
CCOC(=O)c1ccc(N=C2NC(=O)/C(=C/c3ccc(N4CCOCC4)cc3)S2)cc1	100	110	-1	31
Cc1cccc(-c2nc3sc4c(c3c(=O)[nH]2)CCCC4)c1	103	108	19	-25
O=c1c2ccccc2nc(CN2CCCCC2)n1-c1ccccc1	104	105	8	2
CN(CC(=O)Nc1ccc(SC(F)F)cc1)C1CCCCC1	105	100	0	0
Cc1ccccc1N(C)C(=O)c1ccc2c(=O)n3c(nc2c1)CCCCC3	101	102	-1	-4
O=C(Nc1ccccc1)C(=S)Nc1ccccc1	87*	88*	.	-12
NC(=O)C1CCN(C(=O)CCC(=O)c2ccc(Br)cc2)CC1	90	98	0	-17
CCn1nc(C(=O)Nc2ccc(F)cc2C)c2ccccc2c1=O	96	98	4	12
O=C(CN1CCC(n2nnc3cc(F)ccc32)CC1)N1CCCc2ccccc21	102	102	9	0
CCNC(=O)N(C)Cc1nc(-c2cccc(C)c2)no1	103	102	-3	-2
N#Cc1ccc(CSc2nc(N)cc(=O)[nH]2)cc1	103	102	2	-34
Cc1ccc(NC(=O)CCNS(=O)(=O)c2ccc3c(c2)CCC(=O)N3)c(Br)c1	102	101	-2	-38
Cc1oc(-c2cccc(C(F)(F)F)c2)cc1C(=O)Nc1nccs1	101	102	18	-20

For convenience, some entries already given.
SMILES	PV pol inh	PV pol inh intensity	Mtb MbtI inh	Mtb MenB inh
Cn1ccnc1C(O)c1ccc2c(c1)OCO2 (stereo not given)	103	103	-4	-12
O=C(Oc1ccc2sc(=O)oc2c1)c1cccs1	98	105	-5	-6
CCOc1ccccc1CNC(=O)C(C)n1ncn2cccc2c1=O (stereo not given)	103	103	-9	13
O=C(NCC1CCC(C(=O)Nc2ccc3c(c2)OCO3)CC1)c1ccc(=O)[nH]c1 (stereo not given)	101	102	-8	12
O=C(c1cccnc1)N1CCC2(CC1)OCCO2	99	102	-9	-16
Cc1ccc2[nH]c3nc(=S)[nH]nc3c2c1	102	102	22	-21
Cc1ccc(N2CCN(/N=C\C=C\c3ccccc3)CC2)cc1	100	96	2	-21
O=C1CCCC2=C1C(c1ccccc1)CC(=O)N2c1ccc(F)cc1 (stereo not given)	102	102	.	-18
CCc1noc(C)c1C(=O)N1CCc2ccccc21	103	108	-11	-32
O=C(COc1ccccc1)N1CCN(c2ncccn2)CC1	104	106	18	-2
CCOC(=O)c1ccc(N=C2NC(=O)/C(=C/c3ccc(N4CCOCC4)cc3)S2)cc1	100	110	-1	31
Cc1cccc(-c2nc3sc4c(c3c(=O)[nH]2)CCCC4)c1	103	108	19	-25
O=c1c2ccccc2nc(CN2CCCCC2)n1-c1ccccc1	104	105	8	2
CN(CC(=O)Nc1ccc(SC(F)F)cc1)C1CCCCC1	105	100	0	0
Cc1ccccc1N(C)C(=O)c1ccc2c(=O)n3c(nc2c1)CCCCC3	101	102	-1	-4
O=C(Nc1ccccc1)C(=S)Nc1ccccc1	87*	88*	.	-12
NC(=O)C1CCN(C(=O)CCC(=O)c2ccc(Br)cc2)CC1	90	98	0	-17
CCn1nc(C(=O)Nc2ccc(F)cc2C)c2ccccc2c1=O	96	98	4	12
O=C(CN1CCC(n2nnc3cc(F)ccc32)CC1)N1CCCc2ccccc21	102	102	9	0
CCNC(=O)N(C)Cc1nc(-c2cccc(C)c2)no1	103	102	-3	-2
N#Cc1ccc(CSc2nc(N)cc(=O)[nH]2)cc1	103	102	2	-34
Cc1ccc(NC(=O)CCNS(=O)(=O)c2ccc3c(c2)CCC(=O)N3)c(Br)c1	102	101	-2	-38
Cc1oc(-c2cccc(C(F)(F)F)c2)cc1C(=O)Nc1nccs1	101	102	18	-20

Following part.
SMILES	PV pol inh	PV pol inh intensity	Mtb MbtI inh	Mtb MenB inh
O=C(OCc1ncc(-c2ccccc2)o1)c1ccccc1SCC(=O)N1CCCC1	126	149	-6	-18
CC(C)(C)OC(=O)N1CCN(C(=O)C2CCN(c3nccc(C(F)(F)F)n3)CC2)CC1	100	103	6	13
O=C(CC1SC(=Nc2ccc(O)cc2)NC1=O)c1ccc(F)cc1 (stereo not given)	103	102	6	-15
Nc1nc(-c2c(Cl)cccc2Cl)no1	102	104	-6	-15
O=C1CSC(=Nc2cccc3ccccc23)N1	102	101	-13	-17
COc1ccc(Cl)cc1NC(=O)CN(c1ccccc1)S(=O)(=O)N(C)C	106	107	.	-9
Cc1onc(-c2c(Cl)cccc2Cl)c1C(=O)NCC(C)(C)C	105	101	-7	-7
O=C(Cn1[nH]c(=O)c2ccccc2c1=O)N1CCSC1=NCc1ccccc1	90*	88*	-19	2
NC(=O)c1ccc(C(=O)c2ccccc2)cc1	106	110	.	-18
COc1cccc(CNCCc2ccccc2)c1OC	109	112	.	-21
O=C(Nc1c(C(=O)N2CCCC2)oc2ccccc12)C1CCCCC1	101	102	-40	-11
COC(=O)c1ccc[nH]c1=S	100	97	61	-2
CCC1CCc2sc(-c3n[nH]c(=S)n3C)cc2C1 (stereo not given)	100	98	122	-50
Cc1cc(NCCC#N)ccc1Cl	100	105	2	-27
CC12COC3(C(N)=O)CC1CCC32C (stereo not given)	104	106	-14	.
N#CC(C#N)=C1c2ccccc2-c2nc(C#N)c(C#N)nc21	100	101	22	-92
Nc1cc(-c2ccccn2)[nH]n1	103	98	0	-43
O=C(/C=C/c1cn(-c2ccccc2)nc1-c1cc2ccccc2o1)Nc1nc2ccccc2[nH]1	102	108	-58	-17
CCc1ccccc1NC(=O)N1Cc2ccccc2-n2cccc2C12CCN(C(C)=O)CC2	101	105	23	-26
Cc1cc(=O)c2cc(Br)ccc2[nH]1	99	101	-7	-1
NC1(C2CCCCC2=O)CCCCC1 (stereo not given)	103	104	-17	-9
Cc1ccc(C(=O)c2cc3ccccc3o2)cc1C	100	100	-4	-4
Oc1ccccc1Oc1c(F)c(F)nc(N2CCOCC2)c1F	102	104	10	-9
O=C(NCc1ccccc1)C(Cc1ccccc1)N1C(=O)c2ccccc2C1=O (stereo not given)	103	103	4	-22
CNC(=S)NCc1cccnc1	101	103	-10	-3
Cc1cccc(-n2c(CNC(=O)COc3ccc(Cl)cc3)n[nH]c2=S)c1	101	103	-4	-14
COc1ccc(C2=NOC(C(=O)Nc3ccc(C)cc3)C2)cc1 (stereo not given)	98	100	-3	-1
N#Cc1ccccc1NC(=O)CN1CCCC1	104	100	-6	-30
Cc1ccc(C(=O)NCCn2ccc3ccccc32)cc1	99	99	8	-8
Cc1ccc(C)c(CN2C(=O)C(C(C)C(=O)NCc3ccc4c(c3)OCO4)Sc3ccccc32)c1 (stereo not given)	102	105	-3	-27
O=S1(=O)N=C(N2CCNCC2)c2ccccc21	100	103	.	-17
CCCCc1nnc(NC(=O)Nc2ccc(C)cc2)s1	102	101	7	-8
CC(C)OC(=O)CSc1nnc(-c2ccc(N(C)C)cc2)o1	102	102	8	-19
Cn1ccnc1Sc1cnc(=S)[nH]c1-c1ccc(Cl)cc1	98	100	45	-6
O=c1[nH][nH]c(=S)n1-c1cccc(F)c1	103	102	44	-2
C/C(N)=C(/C#N)C(=O)CSc1cccc(C(F)(F)F)c1	104	107	-3	-22
CC1CCC(NC(=O)c2ccc(CS(C)(=O)=O)cc2)CC1 (stereo not given)	101	94	-6	-29
Cc1cc2cc(CNC(=O)C34CC5CC(CC(C5)C3)C4)ccc2[nH]1	100	94	1	-20
CC(C)N(C(=O)COc1ncnc2ccc(Br)cc12)C(C)C	102	97	-15	-5
O=C(CCC(=O)c1ccc2c(c1)OCCCO2)OCc1nc2ccccc2o1	100	98	25	1
CCCNc1nc(Cl)nc(NCC(=O)OCC)n1	99	100	-3	-26
O=C1C(NS(=O)(=O)c2ccccc2)=C/C(=N\S(=O)(=O)c2ccc(F)cc2)c2ccccc21	78*	76*	-2	0
Cc1nc2c([nH]1)C1(CCC(c3ccccc3)CC1)C(C#N)=C(N)O2 (stereo not given)	109	108	.	7
CN(n1cnc2ccccc2c1=O)S(C)(=O)=O	101	102	14	-17
CC[C@@]1(O)C[C@H](O[C@H]2C[C@H](N(C)C)[C@H](O)[C@H](C)O2)c2c(cc3c(c2O)C(=O)c2c(O)cccc2C3=O)[C@H]1C(=O)OC	97	116	-8	-25
Cc1ccc(N=C2S/C(=C/c3cccc(OCC(=O)O)c3)C(=O)N2C)cc1C	104	98	4	-22
Cc1cccc(CNCc2ccc3c(c2)OCO3)c1	103	102	-3	-17
Cc1c(C)c(C)c(S(=O)(=O)N2CCCC2)c(C)c1C	100	108	-4	8
O=C(NC1CCCCC1)C1CCC(CNS(=O)(=O)c2ccccc2)CC1 (stereo not given)	103	96	-9	-15
COc1ccccc1-c1nn(CCC#N)c2nc(C(F)(F)F)cc(C3CC3)c12	104	102	108	-21
CCCn1cnc2scc(-c3ccccc3)c2c1=O	100	99	-2	2
CSCc1c(C(=O)OC(C)C#N)oc2ccccc12 (stereo not given)	106	110	-7	-13
CCCNc1ccccc1N	101	124	-8	0
CN1CCN(C(=O)COc2cccc3ccccc23)CC1	99	103	7	10
CCC(Sc1nc2ncccc2o1)C(=O)NCc1ccc(C)cc1 (stereo not given)	100	104	1	8
Oc1ccc(/C=N/N2CCOCC2)cc1	105	105	10	5
CCC(=O)Nc1ccc(S(=O)(=O)N(C)C2CCCCC2)cc1	99	100	-2	-25
O=S1(=O)N=C(Nc2ccc(N3CCCCC3)c(Cl)c2)c2ccccc21	100	101	8	12
Cc1ccc(S(N)(=O)=O)cc1C(=O)NC1CCCCC1	102	104	-4	-2
COc1ccc(OC)c(NC(=O)C2CC(=O)N(CCc3ccccc3)C2)c1 (stereo not given)	102	106	11	6

Additional results
SMILES	PV pol inh	PV pol inh intensity	Mtb MbtI inh	Mtb MenB inh
CCC(NC(C)=O)c1ccccc1 (stereo not given)	100	102	-2	-32
O=C(COC(=O)Cc1c[nH]c2ccccc12)Nc1ccccc1C(=O)NC1CC1	100	94	-6	-17
CSc1ccc(CCNC(=O)c2cc3c(s2)-c2ccccc2S(=O)(=O)C3)cc1	103	106	-84	-35
NC(=O)COc1ccc(/C=c2/sc3nc4ccccc4n3c2=O)cc1	103	106	7	-23
Cc1ccc(C(=O)c2ccc(CC(=O)O)n2C)cc1	102&99	101&99	-3&-1	-7&1
O=C1CCCc2[nH]c(=O)c(C(=O)Nc3ccc(Cl)cc3)cc21	102	102	0	8
CC1CCN(CCC(=O)Nc2ccccc2F)CC1	109	105	.	-16
CC(C)(C)OC(=O)N1CCC(c2cc(=O)n3[nH]c(-c4ccc(Cl)cc4)cc3n2)CC1	98	104	-3	3
C=CCN(c1ccccc1)S(=O)(=O)c1ccc2c(c1)CC(C)N2C(=O)C1CC1 (stereo not given)	104	108	-10	-17
COc1ccc(Cc2nc3ccccc3n2Cc2ccccc2)cc1	103	102	-3	-41
CCC(Sc1nnc(-c2cc3occc3n2C)n1-c1ccccc1C)C(=O)Nc1ccc(C)cc1 (stereo not given)	103	105	0	-35
O=C(NCc1ccccc1F)c1cccc(N2C(=O)CCC2=O)c1	99	103	-1	7

Some entries already given, showing only PV pol inh intensity, PV pol inh and Mtb MenB inh.
| SMILES | PV pol inh intensity | PV pol inh | Mtb MenB inh |
| --- | --- | --- | --- |
| CCC(Sc1nnc(-c2cc3occc3n2C)n1-c1ccccc1C)C(=O)Nc1ccc(C)cc1 (stereo not given) | 105 | 103 | -35 |
| COc1ccc(Cc2nc3ccccc3n2Cc2ccccc2)cc1 | 102 | 103 | -41 |
